TRPML1 agonist: agonists of human TRPML1 channel. TRPML1-expressing cells, Ca2+ dye fluorescence, FDSS; host cell line not named in the record; reference of the full effect not given here. activation, % (concentration not given with the values). 410,000 tested, 0.12% active; in the data active = activation above about 50%; inconclusive = about 30% to 50%; inactive = below about 30%; further: 0% is about no effect; the text of the record puts the active cut at 80%
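Calcium fluorescence on an FDSS kinetic reader gave the read-out. Tet-induced TRPML1-DL cells were plated overnight, dye-loaded (Ca8 with quencher, 45-90 min, room temperature, dark), then read 110 s after compound addition, and again 110 s after 4uM final 54-4 (EC80).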
CtBP-E1A inh: blocks the CtBP interaction with E1A | AlphaScreen GST-E1A/His-CtBP binding, 1536-well; stronger effect = lower value; control for the full effect not named in the record | activity change, % (no concentration beside the values) | 340,000 tested, 0.49% active | AID 651724; in the data active means activity change below about -65%; inconclusive means about -30% to -65%; inactive means above about -30%; further: on the % scale 0 is the no-effect control and ±100 the full control effect; compound concentration not given in the record
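AlphaScreen with 125 nM GST-E1A and 125 nM His-CtBP (5X stocks) in Tris pH 8.0, 300 mM NaCl, BSA, Tween 20, TCEP. Compounds preincubated 2 h at 37 deg C, then glutathione donor/nickel acceptor beads added for 1 h at 37 deg C in dark.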
Six1-Eya2 blk: Six1/Eya2 interaction inhibition; AlphaScreen GST-Six1/His-Eya2 binding, biochemical; stronger effect = lower value; control for the full effect not named in the record; activity change, % (concentration not given with the values); 360,000 tested, 0.56% active; Q15475+O00167; in the data active = activity change below about -65%; inconclusive = about -30% to -65%; inactive = above about -30%; further: on the % scale 0 is the no-effect control and ±100 the full control effect
Target sequence (O00167 whole entry, looked up): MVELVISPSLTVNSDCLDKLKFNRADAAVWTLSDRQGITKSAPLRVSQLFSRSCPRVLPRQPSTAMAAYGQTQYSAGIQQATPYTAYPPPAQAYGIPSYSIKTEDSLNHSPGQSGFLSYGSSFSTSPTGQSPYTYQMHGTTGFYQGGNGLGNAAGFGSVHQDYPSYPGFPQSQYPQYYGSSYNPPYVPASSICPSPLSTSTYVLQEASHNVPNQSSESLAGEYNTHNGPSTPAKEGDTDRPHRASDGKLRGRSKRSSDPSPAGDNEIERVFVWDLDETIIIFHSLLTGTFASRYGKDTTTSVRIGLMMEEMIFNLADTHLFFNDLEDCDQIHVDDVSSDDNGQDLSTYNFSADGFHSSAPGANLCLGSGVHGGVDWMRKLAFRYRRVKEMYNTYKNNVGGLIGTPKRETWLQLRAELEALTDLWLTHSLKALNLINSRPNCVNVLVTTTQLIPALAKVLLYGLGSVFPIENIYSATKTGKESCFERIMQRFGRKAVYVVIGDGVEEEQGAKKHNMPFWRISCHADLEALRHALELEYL
Target sequence (Q15475 whole entry, looked up): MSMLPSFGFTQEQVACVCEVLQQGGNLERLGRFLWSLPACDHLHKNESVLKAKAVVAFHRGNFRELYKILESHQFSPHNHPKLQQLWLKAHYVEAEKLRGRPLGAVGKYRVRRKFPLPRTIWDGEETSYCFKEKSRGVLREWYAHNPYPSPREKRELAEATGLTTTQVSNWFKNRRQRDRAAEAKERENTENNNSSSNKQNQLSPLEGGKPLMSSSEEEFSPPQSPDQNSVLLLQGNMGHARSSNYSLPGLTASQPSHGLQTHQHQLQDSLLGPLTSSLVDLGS
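Homogeneous AlphaScreen proximity assay pairing GST-Six1 with His-tagged Eya2 (added as 5X mix: 250 nM and 500 nM) in 50 mM Tris pH 8.0, 300 mM NaCl, 1 mM TCEP. Glutathione donor and nickel acceptor beads; 1 h, 37 °C, dark.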
TRPML1 inh: inhibitors of human TRPML1 channel. Q9GZU1. TRPML1-inducible cells, Ca2+ dye fluorescence, FDSS; stronger effect = lower value; inhibition of EC80 agonist-evoked calcium signal. activity change, negative = inhibition, % (concentration not given with the values). 390,000 tested, 0.02% active; in the data active means activity change below about -50%; inconclusive means about -30% to -50%; inactive means above about -30%;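 further: stimulus is agonist 54-4 at its EC80 concentration; on the % scale 0 is the no-effect control and ±100 the full control effect; compound concentration not given in the record; the text of the record puts the active cut at -80%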
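Tet-induced TRPML1-DL cells loaded with Ca8 no-wash calcium dye were read kinetically on FDSS. Compound addition was followed by EC80 agonist 54-4 (4 uM final); inhibition was read over 110 s.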
PINK1 modulator: PINK1 expression modulation; PINK1 immunofluorescence, high-content cytometry, 24 h; Potency, µM (top dose mostly 76.6 µM), without a hit: top-dose activation (PINK1 increase), most hits filed as activators; 410,000 tested, 0.2% active; active = well fitted activation curve with a large enough effect; inconclusive = small, poorly fitted or top-dose-only effect; inactive = flat fitted curve, though single readings scatter; cell line not stated here;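 further: potency means the concentration at half of the fitted maximal effect; % of control where 0% means no effect; nearly all actives have a fitted effect of over 65% in size; a mitochondrial uncoupler was the plate control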
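Measures PINK1 amount and localization on or inside mitochondria by immunofluorescence. Stable cells get compounds at 5 concentrations for 24 hours before fixation and staining; CCCP controls included.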
D2 ag: agonists of human D2 dopamine receptor (beta-arrestin) | P14416 | DiscoveRx PathHunter D2 beta-arrestin, luminescence, 90 min; 100% = 57 uM dopamine signal | activation, % (test concentration not listed) | 360,000 tested, 0.084% active; in the data active = activation above about 40%; inconclusive = about 15% to 40%; inactive = below about 15%; further: compound concentration not given in the record; the text of the record calls up to 30% inactive
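Agonist mode: compounds alone added to overnight-plated D2 PathHunter cells for 90 min at 37 C, with 57 uM final dopamine (EC100) defining full response. Beta-arrestin recruitment detected by chemiluminescent reagent, read after 1 h at ambient temperature.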
* marks the source's active call; other numbers are inactive results; ? = inconclusive; . = not tested or not shown; [ ] = remark or other dose.

SMILES	TRPML1 agonist	CtBP-E1A inh	Six1-Eya2 blk	TRPML1 inh	PINK1 modulator	D2 ag
CCOC(=O)Cn1c(=NC(=O)c2cccs2)sc2cc(C(=O)OC)ccc21	-0.7	4	4	-4	11%	-4.0
NC(=O)COC(=O)C12CC3CC(CC(O)(C3)C1)C2	-0.4	0	0	8	2.2%	-0.3
CC(=O)c1cccc(NC(=O)c2cc3sc(Cl)cc3n2C)c1	-0.9	.	.	-12	2.1%	.
COC(OC)c1ccc(C#N)c(SCc2ccccc2)n1	-0.5	.	42	6	-0.1%	-0.3
Cn1nccc1NC(=O)NC(=O)c1c(Cl)cccc1Cl	-0.4	.	6	11	-0.1%	-2.9
COc1cccc(-c2cc3nc4c(c(N5CCC6(CC5)OCCO6)n3n2)CCC4)c1	0.3	-6	-2	28	8.3%	-6.1
CCOc1ccc(CN2CCN(S(=O)(=O)c3ccc(NC(C)=O)cc3)CC2)cc1OC	-0.3	-4	-6	-8	.	1.2
O=c1[nH]c2cccc(Cl)c2c2ccccc12	0.1	?	-17	18	-0.2%	-3.3
COc1cccc(N(C(=O)c2snc(C(N)=O)c2N)C(C(=O)NCC2CCCO2)c2cccs2)c1 (centres undefined)	-0.1	-4	-3	-4	1.1%	0.6
Cn1ncc(Br)c1C(=O)O	0.5	-24	1	-11	1.1%	-3.4
CCN(CC)CCNc1nc2nonc2nc1NCCN(CC)CC	-0.6	.	1	-11	-0.3%	-4.5
Cc1ccc2oc(=O)c3cnn(CC(=O)N4CCc5ccccc5C4)c3c2c1	0.9	10	2	16	7.0%	-1.6
CC1CCc2sc(C(=O)N/N=C/C3CCCCC3)cc2C1 (centres undefined)	-0.7	4	2	68	17%	-8.9
Cc1ccccc1CCN(C(=O)c1csnn1)C(C(=O)NC1CCCC1)c1ccncc1 (centres undefined)	-0.2	0	-15	-23	0.7%	-0.9
CCOc1ccc(CNC(=O)CC(C)n2nc(C)cc2C)cc1OC (centres undefined)	1.3	.	.	-23	-1.1%	.

Entries from the list above containing two or more sulfur atoms, in the order listed:
SMILES	TRPML1 agonist	CtBP-E1A inh	Six1-Eya2 blk	TRPML1 inh	PINK1 modulator	D2 ag
CCOC(=O)Cn1c(=NC(=O)c2cccs2)sc2cc(C(=O)OC)ccc21	-0.7	4	4	-4	11%	-4.0
COc1cccc(N(C(=O)c2snc(C(N)=O)c2N)C(C(=O)NCC2CCCO2)c2cccs2)c1 (centres undefined)	-0.1	-4	-3	-4	1.1%	0.6

Further results.
SMILES	TRPML1 agonist	CtBP-E1A inh	Six1-Eya2 blk	TRPML1 inh	PINK1 modulator	D2 ag
CCOC(=O)c1sc(NC(=O)CSc2nc(C)cc(C)n2)c(C#N)c1C	-0.2	34	19	-3	11%[38.3 µM]	-1.5
CC1=C(/C=C/C(=O)O)C(C)(C)CCC1	0.7	-10	-8	-16	-2.5%	-4.3
C=CCNC(=O)NC(=O)COC(=O)c1nc2nccc(C)n2n1	2.1	7	1	-7	-1.8%	0.4
CCOC(=O)C1(C)CCN1C(=O)c1cccc(C(F)(F)F)c1 (centres undefined)	-0.9	7	6	.	-0.8%	-2.6
Cc1ccc(S(=O)(=O)NC(C(=O)Oc2ccc3c(C(F)(F)F)cc(=O)oc3c2)c2ccccc2)cc1 (centres undefined)	0.0	-1	-1	-6	1.5%	-1.1
Cc1ccc2oc(=O)c(-c3nc4ccc(C)cc4[nH]3)cc2c1	0.6	.	.	27	11%	.
CCOC(=O)C1CCN(c2c(N3CCN(Cc4ccccc4)CC3)c(=O)c2=O)CC1	-0.5	-1	7	6	2.4%	-1.3
O=c1[nH]c2ccc(N=Cc3c(O)ccc4cc(Br)ccc34)cc2[nH]1	2.0	-9	-16	23	-0.3%	4.3
Cc1cn([C@H]2C[C@H](O)[C@@H](/C=C/C(=O)NCCC(c3ccccc3)c3ccccc3)O2)c(=O)[nH]c1=O	-0.5	1	-1	6	1.3%	-3.9
Cc1ccc(S(=O)(=O)N2CCN(Cc3cccc(C)c3O)CC2)cc1	0.2	2	1	4	6.3%	-3.0
CC1CN(c2oc(-c3ccco3)nc2C#N)CC(C)O1 (centres undefined)	-1.0	9	2	-11	1.7%	-2.5
CCOC(=O)c1ccc(NS(=O)(=O)c2c(C)n(C)c(=O)n(C)c2=O)cc1	-0.1	-1	0	-12	2.5%	-3.2
O=C(Oc1cccc(Br)c1)c1cccnc1	0.2	-22	?	-23	3.2%	-3.6
Cn1cc(CN2CCC(C(=O)NC(c3ccc(-c4ccccc4)cc3)c3cnccn3)CC2)c2ccccc21 (centres undefined)	0.9	-15	-20	.	-1.3%	-5.3
COc1ccc(C(=O)Nc2ccnn2C2CCN(CC3CC=CCC3)CC2)cc1 (centres undefined)	0.0	25	5	-7	0.3%	-5.0
Cc1ccc(OCC(O)Cn2c(N)nc3c2c(=O)n(C)c(=O)n3C)cc1 (centres undefined)	-0.3	-8	-1	23	0.9%	0.7
CCCCCC(O)CCCC(=O)O (centres undefined)	0.9	11	-6	-3	1.8%	-7.2
O=C(CC1SCCNC1=O)Nc1ccc(F)c(Cl)c1 (centres undefined)	0.1	8	3	-9	0.0%	-0.9
CCOc1ccc(NC(=O)[C@H]2O[C@@H]3OC(C)(C)O[C@@H]3[C@H]3OC(C)(C)O[C@H]32)cc1	-0.4	.	.	1	2.2%	.
CC(/C=C/c1ccccc1)=N\NC(=O)CCc1ccccc1	5.9	-2	-5	12	3.7%	4.1
Cc1cc(C)c(NC(=O)CNC(=O)c2cc(C3CC3)nn2-c2ccccc2)c(C)c1	1.8	-7	-1	-8	1.3%	4.5
CCOc1ccccc1NC(=O)[C@@H](NC(=O)c1cccc(S(=O)(=O)N2CCOCC2)c1)C(C)C	0.0	2	3	-4	0.0%	-2.2
CC1CN(CC(=O)Nc2ccc([N+](=O)[O-])cc2Br)CC(C)O1 (centres undefined)	-0.2	-1	-6	4	-0.2%	-2.8
CC(=O)c1sc2nc(-c3ccccc3)cc(C)c2c1N	0.4	-7	1	36	9.6%	5.4
CC(C)(C)OC(=O)N1CCC(c2c(C(=O)NCc3ccccn3)cnn2-c2ccc(F)cc2)CC1	0.9	.	.	7	1.1%	.
Cn1cnc2c(=O)oc3ccc(S(=O)(=O)N4CCN(c5cccc(Cl)c5)CC4)cc3c21	-0.9	.	.	1	-0.4%	.
Cc1cc(NC(=O)C2CCCC2)n(-c2nc3ccccc3[nH]2)n1	-0.1	-1	2	1	15%[38.3 µM]	0.5
Cc1ccc(C)c(-c2cc(C(=O)NN3CCOCC3)c3ccccc3n2)c1	-0.6	10	5	-13	2.3%	-1.4
CCc1cc2c(=O)c(-c3ccon3)c(N)oc2cc1OC	-0.2	10	-11	-8	.	4.2
CCOC(=O)CNC(=O)/C=C/c1c(Cl)cccc1Cl	-0.6	8	-7	4	4.8%	-2.5

Some entries already given, showing only CtBP-E1A inh, D2 ag and TRPML1 inh:
Structure | CtBP-E1A inh | D2 ag | TRPML1 inh
CC(=O)c1sc2nc(-c3ccccc3)cc(C)c2c1N | -7 | 5.4 | 36
O=c1[nH]c2cccc(Cl)c2c2ccccc12 | ? | -3.3 | 18
Cn1nccc1NC(=O)NC(=O)c1c(Cl)cccc1Cl | . | -2.9 | 11
Cc1ccc(S(=O)(=O)N2CCN(Cc3cccc(C)c3O)CC2)cc1 | 2 | -3.0 | 4
Cc1ccccc1CCN(C(=O)c1csnn1)C(C(=O)NC1CCCC1)c1ccncc1 (centres undefined) | 0 | -0.9 | -23
Cc1cn([C@H]2C[C@H](O)[C@@H](/C=C/C(=O)NCCC(c3ccccc3)c3ccccc3)O2)c(=O)[nH]c1=O | 1 | -3.9 | 6

Remaining list, next part.
SMILES	TRPML1 agonist	CtBP-E1A inh	Six1-Eya2 blk	TRPML1 inh	PINK1 modulator	D2 ag
O=C1CC(N2CCN(C(c3ccccc3)c3ccccc3)CC2)C(=O)N1 (centres undefined)	2.5	4	5	-12	1.2%	-4.1
COC(=O)c1ccc(N2CCN(S(=O)(=O)c3ccc4ccccc4c3)CC2)c([N+](=O)[O-])c1	1.5	?	-16	14	-4.6%	-1.2
CSCCC(NC(=O)C1CCC(C)CC1)C(=O)N1CCN(c2ccccn2)CC1 (centres undefined)	-0.3	-3	-2	0	1.7%[38.3 µM]	-3.5
Cc1ccc2onc(CC(=O)Nc3ccc(C(C)C)cc3)c2c1	3.9	.	.	0	1.8%	.
O=C1CC(c2ccccc2)=NO1	0.5	0	-3	-9	2.2%	2.0
CCOC(=O)c1ccc(NC(=O)C(CC)Sc2nc3ncccc3o2)cc1 (centres undefined)	0.6	.	.	12	-0.7%	.
COc1ccc2c(C(=O)c3ccc(Cl)cc3)n(CCCC(N)=O)[n+]([O-])c2c1	-0.9	-18	4	5	-0.6%	3.2
Cc1ccc(NC(=O)CN2C(=O)NC(Cc3c[nH]c4ccccc34)C2=O)cc1S(=O)(=O)N1CCCCC1 (centres undefined)	1.1	-27	-16	6	1.4%	1.4
O=Cc1cn(-c2ccccc2)nc1-c1cc2c(ccc3ccccc32)oc1=O	0.2	7	4	9	0.3%	-1.9
CC(C)(C)C(=O)Nc1ccc(N2CCN(c3ccc(C(F)(F)F)cn3)CC2)nc1	-0.8	9	-9	-13	0.9%	3.8
Cc1ccc2nc(-c3ccc(Cl)cc3)c(Cc3cccc(Cl)c3)n2c1	1.0	0	-8	.	?	.
CC(C)(C)[C@H]1C=C(C(=O)NCc2nc3ccccc3[nH]2)O[C@@H](OCc2ccc(CO)cc2)C1	-0.1	0	-3	0	2.2%	3.1
O=C1/C(=C\c2ccsc2)N2CCC1CC2	0.8	7	18	17	3.3%	-4.6
O=C(COc1ccc(F)cc1)NCC(c1ccc(Cl)cc1)N1CCCCC1 (centres undefined)	1.0	.	.	2	-1.1%	.
Cc1ccc(NC(=O)C(=O)NCc2ccccn2)cc1	-0.5	3	0	-5	1.4%	3.7
Cc1nc(NCCc2ccccc2)sc1C(=O)O	-0.1	6	-14	-13	1.2%	-1.9
CCC1CCCCN1C(=O)COC(=O)c1cc(=O)[nH]c2ccccc12 (centres undefined)	-0.3	18	-1	5	-0.9%	-4.6
CN(C)C(CNc1ccc(C(F)(F)F)cc1[N+](=O)[O-])c1ccccc1 (centres undefined)	-0.4	-29	?	-18	?	-4.8
CC(C)(C)OC(=O)N1CCCC(C(=O)Nc2cccc(C(=O)NC3CC3)c2)C1 (centres undefined)	-0.8	0	-1	-4	-0.2%	-0.2
Cc1ccc2nc3c(c(Nc4ccc5c(c4)OCCO5)c2c1)CCC3	0.2	-26	-9	1	?	-2.7
Cc1ccc2nc(SCC3CCCCO3)[nH]c2c1 (centres undefined)	0.0	-23	-5	7	2.5%	-1.0
